# Screening data from PubChem.
# RecA splice inh: blocks M. tuberculosis RecA intein splicing | hit rate 0.75% among 290,000 | cell-free RecA intein splicing, fluorescence | AID 2221 | inhibition, %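 (about 9 µM by stock and volumes)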; in the data active = inhibition above about 30%; inconclusive = no clear call, values can overlap the other calls;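 note: 0% = vehicle wells and 100% = reference inhibitor control wells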
# Target sequence (P9WHJ3 whole entry, looked up, canonical isoform): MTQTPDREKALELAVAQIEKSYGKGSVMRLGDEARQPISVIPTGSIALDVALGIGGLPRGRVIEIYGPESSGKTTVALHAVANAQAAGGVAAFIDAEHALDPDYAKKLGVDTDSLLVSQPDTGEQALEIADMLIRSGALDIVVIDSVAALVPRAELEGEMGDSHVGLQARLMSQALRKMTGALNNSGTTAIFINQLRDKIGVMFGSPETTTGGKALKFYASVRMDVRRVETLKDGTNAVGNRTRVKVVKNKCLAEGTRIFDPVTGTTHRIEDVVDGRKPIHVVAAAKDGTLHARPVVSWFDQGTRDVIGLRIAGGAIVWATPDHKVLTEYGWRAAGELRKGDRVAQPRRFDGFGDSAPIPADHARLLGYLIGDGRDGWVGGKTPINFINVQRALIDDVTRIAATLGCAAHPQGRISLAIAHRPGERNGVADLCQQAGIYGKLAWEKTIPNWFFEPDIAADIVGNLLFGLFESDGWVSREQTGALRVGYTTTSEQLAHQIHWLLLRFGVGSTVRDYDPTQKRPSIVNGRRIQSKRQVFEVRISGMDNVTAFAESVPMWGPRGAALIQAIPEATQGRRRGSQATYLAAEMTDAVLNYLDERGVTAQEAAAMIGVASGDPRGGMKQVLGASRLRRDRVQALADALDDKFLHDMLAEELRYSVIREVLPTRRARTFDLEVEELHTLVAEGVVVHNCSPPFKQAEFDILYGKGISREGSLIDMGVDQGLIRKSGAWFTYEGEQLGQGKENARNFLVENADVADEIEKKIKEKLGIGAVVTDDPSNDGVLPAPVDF
# YopH PTP inh: inhibitors of Yersinia enterocolitica YopH tyrosine phosphatase; fluorescence Ex485/Em525; inhibition, %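 (about 10 µM by stock and volumes)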; hit rate 0.16% among 140,000; AID 898;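 active = inhibition of 50% or more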;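 note: controls were vehicle for no effect and minimum signal wells for full effect; inactives centre near -20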
# Mtb H37Rv: M. tuberculosis H37Rv growth inhibitors, H37Rv strain (AID 1626); M. tuberculosis H37Rv growth inhibition; higher % means a stronger effect; one-dose inhibition, % at 10 µM; IC50 in µM for titrated hits; hit rate 0.95% among 220,000;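 active = confirmed in a dose series; inconclusive = inhibition above 80% but not taken into the dose series; inactive = below 80% or under 30% at every dose of the series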;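 note: bacteria incubated seven days before Alamar blue readout; 0% = bacteria only wells and 100% = bacteria with antibiotic wells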
# Mtb bLac sens: beta-lactam sensitization of Mtb H37Rv; M. tuberculosis H37Rv growth with meropenem, percent inhibition; hits of this screen are not shown here; inhibition, % at 25 µM; hit rate 0.27% among 330,000; AID 434955;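 active = about 74% or more and at least 40 points above the plate without the antibiotic, then above 30% in a dose series; inconclusive = first-round hits that could not be retested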;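 note: growth measured after seven days incubation then overnight dye step; 0% = bacteria only wells and 100% = bacteria with antibiotic; twin plates without the antibiotic show which effects depend on it; some results filed as inactive read as strong as hits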
# Arbovirus inh: blocks arbovirus infection. hit rate 0.37% among 200,000. inhibition, % at 10 µM. arbovirus infection cell-based antiviral screen. AID 1251;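 active = inhibition from about 30%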;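 note: bluetongue infection of BSR cells; cell survival read as ATP light after 72 h; 0% = infected wells without compound and 100% = uninfected wells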
# Arbovirus inh repeat: second read-out of Arbovirus inh, no call of its own (marks repeat the call); inhibition, %; measured here: 10K subset replicate screen; many hits read low in the repeat;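 first of two repeat runs on a subset; 0% = infected and 100% = uninfected wells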
# * = called active by the depositor; ? = inconclusive; . = not tested or not shown. Not all compounds are listed. The share of hits here may be higher or lower than overall.
SMILES,RecA splice inh,YopH PTP inh,Mtb H37Rv,Mtb bLac sens,Arbovirus inh,others
COc1ccc(CC2S/C(=N/N=C/c3ccccc3O)NC2=O)cc1 (centres undefined),-7.9,.,?,99,.,
Cc1ccn2c(NC3CCCC3)c(-c3ccccn3)nc2c1,6.7,.,3.2µM*,98,-24,
Cc1ccccc1N1C(=O)NC(=O)/C(=C\c2cnn(-c3ccccc3)c2)C1=O,-8.0,-23,7%,5,3,
C=C1C(=O)C=C2CN(C(=O)c3ccccc3)[C@@](Cc3ccc(F)cc3)(C(=O)OC)[C@@H]12,22,-40,?,99,-38,
O=C(NC1CCCCC1)N1CCN(c2ccc([N+](=O)[O-])cc2)CC1,4.0,.,.,-1,.,
COc1ccccc1CC(=O)Nc1cccc(S(=O)(=O)N2CCOCC2)c1,1.1,.,.,-8,.,
C=C[C@@H]1C[C@@]1(C)[C@@H](NP(=O)(c1ccccc1)c1ccccc1)c1ccccc1,-2.2,-17,-7%,2,-7,
CC(C)c1ccc(NC(=O)CNC(=O)Cn2ccc3ccccc3c2=O)cc1,-2.6,.,.,-1,.,
Cc1nn(-c2ccc(NC(=O)c3ccncc3)cc2)c(C)c1Cl,1.4,.,.,-5,.,
Cc1ccc(-c2nn3c(C)nnc3c3ccccc23)cc1S(=O)(=O)NCc1ccccc1,-0.1,-13,3%,.,6,
CS(=O)(=O)N1CCC(C(=O)NCc2ccncc2)CC1,-2.0,-28,.,9,4,
CC(C)Nc1c(N)c(=O)oc2ccccc12,-2.6,-27,-1%,-4,1,
CNc1c([N+](=O)[O-])ncn1C,-0.8,1,-5%,-8,4,
Cc1ccc(S(=O)(=O)NCC(=O)OCC(=O)c2c(N)n(C)c(=O)n(C)c2=O)cc1,3.0,-33,-6%,2,-12,
C(=N\Nc1nc(-c2ccccc2)cs1)/c1ccco1,12,-13,13%,98,36*,
Fc1ccccc1CSc1nnc(-c2cccs2)o1,4.2,-33,22%,9,-1,
CCOc1cccc2cc(C(=O)N3CCOCC3)c(=O)oc12,0.0,.,.,-2,.,
Cc1cc(C)c(C(=O)Nn2c(C)nc3ccccc3c2=O)cc1C,0.5,.,.,3,.,
O=C(COC(=O)c1cccc(S(=O)(=O)N2CCc3ccccc32)c1)NCc1ccco1,0.5,.,3%,1,8,
Cc1sc(NC(=O)C2=COCCO2)c(C(N)=O)c1C,-0.1,.,.,-15,.,

# Quoted at random: 2 compounds from above.
SMILES,RecA splice inh,YopH PTP inh,Mtb H37Rv,Mtb bLac sens,Arbovirus inh,others
Cc1ccc(-c2nn3c(C)nnc3c3ccccc23)cc1S(=O)(=O)NCc1ccccc1,-0.1,-13,3%,.,6,
Cc1ccc(S(=O)(=O)NCC(=O)OCC(=O)c2c(N)n(C)c(=O)n(C)c2=O)cc1,3.0,-33,-6%,2,-12,

# Next entries.
SMILES,RecA splice inh,YopH PTP inh,Mtb H37Rv,Mtb bLac sens,Arbovirus inh,others
Cc1c(N2C(=O)/C(=C3\C(=O)N(CC(=O)O)c4ccccc43)SC2=S)c(=O)n(-c2ccccc2)n1C,-3.2,.,-3%,-3,.,
C=CCOc1ccc(/C(O)=C2/C(=O)C(=O)N(CCCN3CCOCC3)C2c2ccc(OC)cc2)cc1 (centres undefined),.,-2,-9%,5,2,
COc1cc(CCC(=O)OCC(=O)Nc2c(Cl)cccc2Cl)cc(OC)c1OC,-5.9,.,.,2,.,
O=C(CSc1nc2ccccc2s1)NNC(=S)Nc1ccccc1,2.7,-12,16%,5,0,
CC1CC(C)CN(c2ccc(C(=O)NCc3ccc4c(c3)OCO4)cc2[N+](=O)[O-])C1 (centres undefined),2.8,-37,13%,4,-6,
Cc1ccc(/C=C(/C#N)C(=O)NC(=O)Oc2ccccc2)cc1,0.4,-12,-8%,5,10,
Nc1nc(SCC(=O)Nc2ccc(F)cc2)[nH]c(=O)c1NC(=O)c1ccc(F)c(F)c1,-0.3,.,.,-8,.,
O=C(Cn1ccn(-c2ccc(F)c(Cl)c2)c(=O)c1=O)NCCc1ccccc1,-2.3,.,.,-4,.,
COc1ccc(/C=C2\CCC(C3CCCC3)C2=O)cc1OC (centres undefined),1.5,.,.,2,.,
COc1ccc(N(CC(=O)NC2CCCCC2)C(=O)CCC(=O)Nc2nc(C)cs2)cc1,-0.7,.,.,8,.,
NC(=O)COC(=O)c1ccc(S(=O)(=O)NCc2ccco2)cc1,3.4,.,10%,-9,13,
O=C(O)c1ccccc1OC(C(=O)Nc1cc(Cl)cc(Cl)c1)c1ccccc1 (centres undefined),-0.8,.,.,1,.,
COc1ccc(NC(=O)CN2c3cccc4cccc(c34)S2(=O)=O)c(OC)c1,4.8,-30,1%,2,18,
CC1CCCCN1c1ccc(N)cc1C(N)=O (centres undefined),.,.,-4%,5,5,
Nc1ncc(CCN2CCOCC2)c(-c2ccc(F)cc2)n1,0.2,.,-6%,-5,0,
CCCOc1ccccc1C1SCC(=O)Nc2c1c(=O)[nH]n2C(C)CCC (centres undefined),-1.0,-31,-9%,1,21,Arbovirus inh repeat=3
Cc1ccc2c(CC(=O)NCc3ccc4c(c3)OCO4)coc2c1,-1.3,-43,12%,5,3,
O=C(Nc1ccc(S(=O)(=O)NCC2CCCO2)cc1)c1ccc(Cl)cc1[N+](=O)[O-] (centres undefined),-3.3,.,-2%,6,-7,
COc1ccc(-c2cc(C(F)(F)F)nc(S(=O)(=O)CCCC(=O)Nc3cc(C)on3)n2)cc1OC,26,.,6%,.,-29,
COc1ccccc1-n1c(SCC(=O)NCc2ccc3c(c2)OCO3)nc2cc([N+](=O)[O-])ccc21,8.6,-24,6%,-2,-14,
COc1ccc(Cn2c(=O)[nH]c3cc(C(=O)N4CCN(Cc5ccccc5)CC4)ccc3c2=O)cc1,0.1,-34,7%,86,-4,Arbovirus inh repeat=-12
Cc1ccc(NS(=O)(=O)c2ccc(NC(=O)c3ccc(Br)o3)cc2)c(C)c1,11,-12,-1%,-7,2,
Cc1c(NC(=O)CCc2ccccc2)cccc1[N+](=O)[O-],1.8,.,9%,-4,3,
CCOc1ccc(NC(=O)CSc2nnc(-c3ccccc3Cl)n2Cc2ccco2)cc1,.,-9,6%,53,2,
Cc1nn(C)c(Sc2ccccn2)c1[N+](=O)[O-],-3.2,.,0%,-10,.,
CC(NC(=S)Nc1ccc(Cl)cc1Cl)C(c1cccs1)N1CCCC1 (centres undefined),4.7,-28,12%,1,10,
CCOc1ccccc1/C=C\c1nc(O)c([N+](=O)[O-])c(=O)[nH]1,-0.7,.,.,1,.,
CC(C)c1ccc(NC(=O)CCCN2C(=S)NC(C)(C)CC2C)cc1 (centres undefined),1.0,.,8%,-25,15,
Cc1ccc(NC(=O)c2ccccc2CCc2ccccc2)c(C)c1,-0.8,-10,-1%,-4,-1,
FC(F)(F)Oc1ccccc1-c1nnc(-c2cccc(C(F)(F)F)c2)o1,1.3,.,2%,-3,.,
COc1ccc2ccccc2c1/C=N/Nc1ccc(Cl)c(C(=O)O)c1,-6.6,.,.,-6,.,
O=S(=O)(Nc1nc2ccc(S(=O)(=O)N3CCCCC3)cc2s1)c1ccccc1,1.5,7,-12%,-6,-5,
CC1CCN(C(=S)c2ccc(O)cc2)CC1,-0.3,2,-1%,-11,5,
COc1cccc(/C=C/C(=O)OCC(=O)Nc2nnc(-c3ccccc3)o2)c1,-1.8,.,.,55,.,
Cc1nnc(C)n1/N=C/c1c(O)ccc2ccccc12,-0.2,.,.,-1,.,
CCC(=O)NC(/C=C/c1ccccc1)c1cc([N+](=O)[O-])c2cccnc2c1O (centres undefined),-1.0,-1,-18%,2,-21,
O=C(CCS(=O)(=O)c1cccc2nonc12)N1CCOCC1,0.7,4,-1%,0,-8,Arbovirus inh repeat=7
Cc1ccc(NS(=O)(=O)c2ccc(NC(=O)N3CCCCC3)cc2)cc1,-2.8,.,.,-7,.,
COCCC(=O)N1CCC(Oc2ccc(C(=O)NCc3cc(C)n(C)n3)cc2)CC1,1.9,.,.,0,.,
CC(=O)C1=C(O)C(=O)N(Cc2cccnc2)C1c1ccc(Cl)cc1Cl (centres undefined),.,-47,-1%,-1,8,
O=C(NCc1cccc2ccccc12)Nc1ccccc1,0.0,.,4%,-2,-12,
Cc1ccc(Nc2nc(N3CCOCC3)c3ccccc3n2)cc1,4.9,-46,0%,61,-4,
CSC1=NCCN1C(=O)c1cccs1,4.2,-21,-5%,-12,0,Arbovirus inh repeat=-1
CCc1cc(CNC(=O)CC2C(=O)NCCN2Cc2ccc(-c3ccccc3)cc2)on1 (centres undefined),4.5,.,.,9,.,
CCCN(CCC)[C@@H]1CCc2cccc(O)c2C1,-0.8,.,-10%,9,.,
CCn1c(SCC(=O)Nc2cc(C)on2)nnc1-c1cccs1,0.7,-38,-3%,-2,-1,
N#CC(C#N)=c1ccc2c(c1)N1C(c3ccccc3)=CC(c3ccccc3)C3CCCCC31N=2 (centres undefined),-7.9,.,28µM*,100,.,
Cc1ccc(CNC(=O)c2ccc(N3CCC4(CC3)CC(c3cccc(Br)c3)=NO4)c(NC(=O)c3ccccc3)c2)cc1,-0.8,.,.,-5,.,
COCCN1C(=O)C(=O)/C(=C(/O)c2cccc(OC)c2)C1c1ccncc1 (centres undefined),0.2,-12,-21%,1,2,
CCOc1ccc(OCC)c(NC(=O)CCn2cccc2)c1,-3.7,-15,-6%,1,-3,
Cc1ccc(C(=O)NC2CCCc3ccccc32)o1 (centres undefined),1.6,-35,3%,-23,2,
COc1ccc(-c2nc(CS(=O)CC(=O)NC3CCCC(C)C3C)c(C)o2)cc1OC (centres undefined),-1.5,.,.,-1,.,
O=C(NNC(=S)Nc1ccccc1)c1cccc(S(=O)(=O)N2CCOCC2)c1,8.0,.,14%,-4,17,
O=C(Cc1ccc(Br)cc1)N1CCc2ccccc2C1,0.6,.,.,11,.,
Cc1ccc(C#CC[N+]2(C)CCCCC2)cc1,-2.2,.,-5%,-2,.,
O=[N+]([O-])c1ccc(N2N=C(c3ccco3)CC2c2ccccc2)cc1 (centres undefined),-4.2,-17,5%,12,-23,
CCC(C)c1ccc(OCCN2CCCC2)cc1 (centres undefined),0.1,-6,-2%,-5,-7,
O=C(Cn1c(=O)c2cccn2c2cccnc21)N1CCN(c2ccc(Cl)cc2)CC1,-1.6,.,.,5,.,
Cc1ccc2c(c1)nnn2C1CCN(C(=O)Nc2ccccc2C)CC1,-1.0,.,9%,-7,15,
NC(=O)c1ccccc1NC(=O)COC(=O)C1(c2ccccc2)CC1,-0.9,.,.,-5,.,

# Following part.
SMILES,RecA splice inh,YopH PTP inh,Mtb H37Rv,Mtb bLac sens,Arbovirus inh,others
CC(C)[C@H](Nc1ccc(S(=O)(=O)N2CCOCC2)cc1[N+](=O)[O-])C(=O)OCC(N)=O,-7.3,-26,1%,1,-3,
COc1ccsc1C(=O)NCCN1CCOCC1,0.0,.,.,-11,.,
CCCCN(CC)S(=O)(=O)c1ccc2c(c1)CCCN2C(C)=O,2.4,7,-2%,-6,1,
O=C(CN(C(=O)C1CSC(=O)C1)c1ccccc1F)NCc1ccc2c(c1)OCO2 (centres undefined),-5.3,-34,7%,-6,-4,
COc1ccc(/C=C/C(=O)OC(C)CN2CCOCC2)cc1 (centres undefined),1.1,-33,-1%,-6,9,
COc1ccc(CNC(=O)c2cc(=O)c3cc(C)cc(C)c3o2)cc1,-2.6,.,.,-1,.,

# Among those listed so far, 11 have a nitro group on carbon.
SMILES,RecA splice inh,YopH PTP inh,Mtb H37Rv,Mtb bLac sens,Arbovirus inh,others
O=C(NC1CCCCC1)N1CCN(c2ccc([N+](=O)[O-])cc2)CC1,4.0,.,.,-1,.,
CNc1c([N+](=O)[O-])ncn1C,-0.8,1,-5%,-8,4,
CC1CC(C)CN(c2ccc(C(=O)NCc3ccc4c(c3)OCO4)cc2[N+](=O)[O-])C1 (centres undefined),2.8,-37,13%,4,-6,
O=C(Nc1ccc(S(=O)(=O)NCC2CCCO2)cc1)c1ccc(Cl)cc1[N+](=O)[O-] (centres undefined),-3.3,.,-2%,6,-7,
COc1ccccc1-n1c(SCC(=O)NCc2ccc3c(c2)OCO3)nc2cc([N+](=O)[O-])ccc21,8.6,-24,6%,-2,-14,
Cc1c(NC(=O)CCc2ccccc2)cccc1[N+](=O)[O-],1.8,.,9%,-4,3,
Cc1nn(C)c(Sc2ccccn2)c1[N+](=O)[O-],-3.2,.,0%,-10,.,
CCOc1ccccc1/C=C\c1nc(O)c([N+](=O)[O-])c(=O)[nH]1,-0.7,.,.,1,.,
CCC(=O)NC(/C=C/c1ccccc1)c1cc([N+](=O)[O-])c2cccnc2c1O (centres undefined),-1.0,-1,-18%,2,-21,
O=[N+]([O-])c1ccc(N2N=C(c3ccco3)CC2c2ccccc2)cc1 (centres undefined),-4.2,-17,5%,12,-23,
CC(C)[C@H](Nc1ccc(S(=O)(=O)N2CCOCC2)cc1[N+](=O)[O-])C(=O)OCC(N)=O,-7.3,-26,1%,1,-3,
